# Ab BasE inh = BasE siderophore enzyme inhibitors, primary screen, biochemical, Acinetobacter baumannii ATCC 17978, fluorescence polarization | inhibition, % (concentration not given with the values) | 0.1% of 84,000 active | purified BasE, fluorescence polarization binding displacement | AID 485350, 2010;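 active = both replicates above 25% with normal brightness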;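 note: 0% = negative plate control signal and 100% = positive plate control signal; stock transfer was 100 nL into about 30 µL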
# KSHV LANA nucl = inhibitors of KSHV LANA-nucleosome binding, primary screen, biochemical, fluorescence polarization, FITC-LANA1-23, chicken nucleosomes; 0.3% of 51,000 active; FITC-LANA1-23 / chicken nucleosome fluorescence polarization; stronger effect = lower value; z-score (concentration not given with the values);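 active = both repeat wells score below -2 in polarization z-score versus plate sample wells, excluding overly bright wells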;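 note: 100 nL library stock added to about 30 µL; numbers are from one replicate; some results filed as inactive read as strong as hits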
#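 Material: Purified chicken nucleosomes with FITC-labelled LANA N-terminal peptide (1-23) | Reagent: 50 nM FITC-LANA1-23 probe | Medium: TEN-BT buffer, pH 7.5 | Times: 10–45 min incubation at room temperature | Detection: Fluorescence polarization | Replication: Duplicates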
# * = called active by the depositor; / = not tested or not shown; & = joins results of further samples. The list is partial; the hit share may differ from the screen's.
entry	structure	Ab BasE inh	KSHV LANA nucl
1	CN1CCN(C(=O)c2ccc(N(C)S(C)(=O)=O)cc2)CC1	0.1	-1.1
2	CCOC(=O)C(C(=O)Nc1ccc(N(CC)CC)cc1)C1CCCCC1 (configuration not stated)	0.6	/
3	CC1(C)Oc2nc3ccccc3n2/C1=C\C#N	0.9	-0.58
4	O=C(Nc1cccc(C(F)(F)F)c1)C(F)(F)F	/	-0.24
5	O=C(O)c1ccccc1COc1ccccc1Cl	1.0	0.084
6	O=C(c1cccnc1Nc1ccccc1F)N1CCCCC1	-2.8	3.3
7	Cn1c(CC2Sc3ccccc3NC2=O)n[nH]c1=S (configuration not stated)	-1.6	/
8	Cc1ccc(F)cc1NC(=O)N1CCCN(c2ccc(C(F)(F)F)cn2)CC1	/	-0.74
9	N#Cc1oc2ccccc2c1NC(=O)COC(=O)Cc1cccc(C(F)(F)F)c1	1.3	/
10	CN(C)C(=O)C1OC(C)(C)OC1C(=O)N(C)C (configuration not stated)	0.1	0.36
11	Cc1cc(NC(=O)COC(=O)c2ccc(S(=O)(=O)N3CCCc4ccccc43)cc2)no1	2.1	/
12	Cc1ccc(NC(=O)CSCc2nc3ccc(Cl)cc3n2CCO)cc1C	-3.9	/
13	O=C(O)C(c1ccccc1)N1CCCC1 (configuration not stated)	-0.5	-0.69
14	CCOC(=O)C1=C(C)OC2(O)c3ccccc3C(=O)C12O (configuration not stated)	6.7	0.4
15	Cc1cc(Cl)ccc1OCC(=O)OCC(=O)c1ccc[nH]1	-4.0	/
16	Cc1sc2ncnc(OCC(=O)N3CC(=O)Nc4ccccc43)c2c1C	-9.3	/
17	Nc1ccccc1C(=O)NCc1c(F)cccc1Cl	1.1	/
18	Cc1cc(C(F)(F)F)nc(SCC(=O)c2ccccc2)n1	1.7	0.69
19	CC(C)c1ccc(C2=CC(=O)C=CC2=O)cc1	2.3	0.66
20	CCOC(=O)C1CCN(CC(O)C(F)(F)F)CC1 (configuration not stated)	/	-0.048

# (list continues)
entry	structure	Ab BasE inh	KSHV LANA nucl
21	NC(=O)c1cc(S(=O)(=O)N2CCCC2)ccc1OCc1nc(-c2ccccc2)no1	0.1	/
22	CN(C)CCN1C(=O)c2oc3ccc(F)cc3c(=O)c2C1c1cccs1 (configuration not stated)	1.4	0.18
23	Cc1noc(C)c1C(=O)OCc1cc(F)cc2c1OC(c1ccccc1)OC2 (configuration not stated)	1.3	/
24	Cc1cccc(N=C2NC(=O)CS2)c1	1.4	/
25	COCc1cc(C)nc2sc3c(=O)n(C(C)(C)C)nnc3c12	0.3	0.4
26	CCOc1ccc(C2Nc3ccccc3NC3=C2C(=O)CCC3)cc1 (configuration not stated)	1.1	/
27	CCc1ccc(NC(=O)C2CCN(C(=O)c3ccc(F)cc3)CC2)cc1	0.0	/
28	CCOC(=O)N1CCN(C(=O)CCNS(=O)(=O)c2cc(Br)cnc2N)CC1	1.5	1
29	N#CNC1=NCN(Cc2ccccc2)CN1	-1.9	0.43
30	COc1ccc(OC)c(CCCCc2cc(OC)ccc2OC)c1	0.5	/
31	COc1ccc(/C=C2\SC3C(C#N)=C(c4ccc(OC)cc4)C(C#N)=C(N)N3C2=O)cc1 (configuration not stated)	-0.7	0.21
32	COC(=O)c1cc2ccsc2n1CC(=O)Nc1ccc(C)cc1C	-0.9	0.02
33	Fc1cccc(Cl)c1C=Nc1cccnc1	-6.8	/
34	CCOC(=O)c1cc(NC(=O)Nc2nccs2)c(C)nc1C	-2.0	/
35	CCOc1c(Br)cc(C(=O)N2CCC(C(N)=O)CC2)cc1OC	-0.3	/
36	N#CCSc1nnc(NC2CCCCC2)s1	1.4	/
37	O=C(Cn1ncc(Cl)c(Cl)c1=O)Nc1ccc(Cl)cc1	2.3	/
38	C=Cn1cccc1-c1ccccc1	-0.9	0.73
39	Cc1ccc(/C=N/N=C/c2ccc(C)s2)s1	4.3	0.1
40	COC(=O)c1ccc(Cn2c(O)c(N=O)c3ccccc32)o1	6.8	/

# Sorted by SMILES length (highest first): part of the list above.
entry	structure	Ab BasE inh	KSHV LANA nucl
23	Cc1noc(C)c1C(=O)OCc1cc(F)cc2c1OC(c1ccccc1)OC2 (configuration not stated)	1.3	/
26	CCOc1ccc(C2Nc3ccccc3NC3=C2C(=O)CCC3)cc1 (configuration not stated)	1.1	/
40	COC(=O)c1ccc(Cn2c(O)c(N=O)c3ccccc32)o1	6.8	/
29	N#CNC1=NCN(Cc2ccccc2)CN1	-1.9	0.43

# Other results:
entry	structure	Ab BasE inh	KSHV LANA nucl
41	Cc1nn(CCSc2cc(Cl)ccc2Cl)c(=O)c(C#N)c1C	2.2	/
42	Cc1nc2cc3c(cc2n1CC(=O)NCC(F)(F)F)OCCO3	1.3	/
43	CC1(C)CC(=O)C=C(Nc2ccccc2F)C1	-0.7	-0.9
44	COc1ccc(/C=C/C(=O)NCC2(c3ccccc3)CCOCC2)cc1	-1.2	/
45	O=C(O)c1nc(-c2ccccc2)cc(-c2ccccc2)n1	-2.6	1.4
46	COc1ccc(CNC(=O)CN2CCN(Cc3ccccc3)C2=O)cc1	0.1	-0.06
47	O=S(=O)(c1ccccc1)c1nnn2c1nc(NC1CCCC1)c1sccc12	-0.1	-1.1
48	CCCCn1nnnc1CSCC(=O)Nc1ccc2c(c1)OCCO2	2.3	/
49	COc1ccc(OCC(O)CN(Cc2ccccc2)Cc2ccccc2)cc1 (configuration not stated)	2.8	0.35
50	COc1ccc(C(CCN2C(=O)CCC2=O)C2CCOC(C)(C)C2)cc1 (configuration not stated)	3.6	-0.71
51	O=C(N=C=S)c1ccc2ccccc2c1	3.1	/
52	Cc1cc(C)nc(SCC(=O)c2ccc3c(c2)OCCO3)n1	0.6	-0.73
53	CC(OC(=O)Cc1c[nH]c2ccccc12)C(=O)N1CCc2ccccc21 (configuration not stated)	0.7	/
54	O=C(Nc1nccs1)c1cccc(C(=O)Nc2nccs2)c1	-0.6	0.47
55	Cc1nc2ncnn2c(C)c1Cc1cccc(C(F)(F)F)c1	/	-0.29
56	COc1ccc(NC(=S)N2CCC(c3nc4ccccc4o3)CC2)c(OC)c1	-1.9	-0.17
57	O=C(Nc1ccccc1N1CCOCC1)c1ccccc1	1.6	/
58	c1cnc(NCC2COc3ccccc3O2)nc1 (configuration not stated)	0.5	/
59	O=C(O)CC(C(=O)Nc1ccc2ccccc2c1)N1CCOCC1 (configuration not stated)	-1.0	/
60	O/N=C(\Cc1ncc[nH]1)c1ccccc1	2.8	/

# (continued)
entry	structure	Ab BasE inh	KSHV LANA nucl
61	O=C(CN(Cc1ccc2c(c1)OCO2)C(=O)c1cnsn1)NC1CCCC1	2.2	0.1
62	CCCn1nnc(NC(=O)Cc2ccccc2)n1	0.6	-0.24
63	COc1ccccc1CNCCN1CCOCC1	-2.6	0.034
64	COc1ccc(N2C(=O)C3CC=CC(C)C3C2=O)cc1 (configuration not stated)	1.8	/
65	COC(=O)c1cn(Cc2ccc(Cl)cc2)cc(F)c1=O	-1.6	/
66	CC(C)C1NC(=O)CNC1=O (configuration not stated)	2.4	-0.52
67	N#CCc1ccc(C(=O)c2ccco2)s1	/	0.62
68	CNCc1ccc(F)cc1	-1.4	/
69	Cc1cc(S(=O)(=O)N2CCCc3ccccc32)ccc1OCC(N)=O	1.4	-0.74
70	COc1ccc(-c2nnc(SCC(=O)NCCCc3ccccc3)n2N)cc1	-3.4	/
71	O=C(O)c1ccccc1-n1c(=O)c2cc3c(=O)n(-c4ccccc4C(=O)O)c(=O)c3cc2c1=O	3.4	/
72	O=C(O)c1sccc1S(=O)(=O)N1CCN(c2ccc(C(F)(F)F)cn2)CC1	1.1	/
73	Cc1cccc(NC(=O)c2cccc(C(=O)Nc3cccc(C)c3)c2)c1	1.8	/
74	CC12C=CC(O1)C1C(=O)N(c3ccc(F)c(Cl)c3)C(=O)C12 (configuration not stated)	-5.7	0.69
75	Cc1cnc(C(=O)Nc2ccc(-n3cnnn3)cc2)cn1	3.3	/
76	CC(C)(C)c1ccc(-c2noc(CNS(=O)(=O)c3ccccc3)n2)cc1	-2.1	0.48
77	N#C/C(C(=O)NC1CC1)=c1/s/c(=C/c2ccco2)c(=O)n1-c1ccc(F)cc1	-3.0	/
78	CC(C)(C)c1ccc(C(=O)Oc2ccccc2CCC(=O)O)cc1	3.0	/
79	Cn1nnc(NC(=O)COc2ccccc2)n1	1.4	0.65
80	O=C(CCc1nc(-c2ccccc2)no1)NC1CCCC1	1.5	-1.4

# Remaining list, next part.
entry	structure	Ab BasE inh	KSHV LANA nucl
81	CC1=CS(=O)(=O)CC1	-0.9	-0.34
82	c1ccc2c(c1)CCN(Cn1cnc3ccccc31)C2	6.4	/
83	CCOC(=O)C1=C(C)NC(=O)NC1c1ccc(OCC(=O)N/N=C/c2ccc(N(C)C)cc2)c(OC)c1 (configuration not stated)	-1.3	0.64
84	CCCNS(=O)(=O)c1ccc(-c2ccc(=O)[nH]n2)o1	1.4	/
85	CC1CCCCC12NC(=S)N(c1ccc(Cl)cc1)N2 (configuration not stated)	1.8	0.09
86	Cc1ccccc1Oc1ccc(-c2nc(N)nc(N)n2)cc1	-12	0.34
87	CCCCS(=O)(=O)N1CCOCC1	-1.4	0.64
88	CC1CCN(C(=O)Oc2ccccc2)CC1	-2.3	-1.4
89	Cc1c2cnn(-c3ccccc3)c(=O)c2c(C)n1CCCC(=O)N1CCOCC1	-3.0	1.5
90	Cn1cc(C(=O)c2cccc(Cl)c2Cl)cc1C(N)=O	/	-0.16
91	COC(=O)COc1ccc(S(=O)(=O)N2CCCCC2)cc1C	-1.2	0.79
92	N#Cc1ccc(CSc2nc3ccccc3s2)cc1	0.7	/
93	Cc1nnc(SCC(=O)c2ccc3c(c2)NC(=O)CO3)n(N)c1=O	-5.2	/
94	COc1cccc(NC(=O)CN(C)CC(=O)Nc2cccc(C#N)c2)c1	-1.7	/
95	COc1cc(OC)c(C(=O)N2CCCN(C)CC2)cc1OC	-0.9	0.41
96	O=C1CCCc2ccccc2N1Cc1ccccc1	/	1.1
97	CCn1c(=O)c2ccccc2c2c(O)nc(-c3ccccc3)n21	3.4	/
98	CC(=O)OC(C(=O)N1CCN(c2ccccc2F)CC1)c1ccccc1 (configuration not stated)	3.4	1
99	Oc1ccc2oc3c(c2c1)CCCC3	1.3	0.1
100	O=c1nc(-c2ccccc2)cn[nH]1	2.1	0.46

# The list goes on:
entry	structure	Ab BasE inh	KSHV LANA nucl
101	CSc1nnc(-c2ccc(C(F)(F)F)nc2C)o1	1.8	/
102	C(=N\N=C(c1ccccc1)C12CN3CN(CN(C3)C1)C2)/c1ccccc1	-0.6	0.55
103	CCN=C1SC(CC(=O)Nc2ccccc2)C(=O)N1CC (configuration not stated)	-2.1	0.91
104	Cc1ccc(OCC(=O)NC2CCC(C)CC2)cc1C (configuration not stated)	1.1	/
105	Cn1nc(C(=O)NCc2cccs2)c2c1-c1ccccc1SC2	-1.9	-1.6
106	CCn1cc(C(=O)O)c(=O)c2ccc(C)nc21	-1.7&-1.3	0.36&0.7&0.61
107	CC1(C)CC(=O)C(C(C2=C(O)CC(C)(C)CC2=O)C(O)CO)C(=O)C1 (configuration not stated)	1.3	/
108	CC(=O)Oc1ccc(C(c2ccc(OC(C)=O)cc2)c2ccccn2)cc1	-1.0&-2.1	0.59&0.82&0.012&-0.53
109	CC(C)Cn1c(N)c(C(=O)NCc2ccc3c(c2)OCO3)c2nc3ccccc3nc21	2.0	-0.66
110	COc1ccc(-c2ccc(Nc3ccc(C(=O)N4CCCCCC4)cc3)nn2)cc1	-2.5	0.078
111	C=CCn1c(COc2ccc(CC)cc2)nnc1SCC(=O)N(C)C1CCS(=O)(=O)C1 (configuration not stated)	1.7	/
112	CN(C)CCN1C(=O)C2C3C=CC(C3)C2C1=O (configuration not stated)	1.5	-0.71
113	CCOC(=O)c1cc(-c2ccc(S(=O)(=O)N(C)Cc3cnn(-c4ccccc4)c3)s2)on1	0.0	0.7
114	C=CCc1cc(/C=C2/SC(=O)N(CC(=O)N3CCCC3)C2=O)cc(OCC)c1O	0.5	0.59
115	O=C(NCCN1C(=O)S/C(=C\c2ccc(Cl)c(Cl)c2)C1=O)C1=COCCO1	-4.4	/
116	CC(=O)Nc1ccc(SCC(=O)N(C)C2CCCCC2)cc1	0.9	/
117	O=C(/C=C/c1ccccc1)N1CCN(S(=O)(=O)c2ccc(F)cc2)CC1	-2.1	0.32
118	CCCN1C(=O)/C(=C/c2c(N3CCCC3)nc3ccccn3c2=O)SC1=S	-20	1.6
119	CN1/C(=N\O)c2cccc3cccc1c23	1.5	0.46
120	O=C(NCCN1CCOCC1)c1sc2ccccc2c1Cl	-3.0	-0.97

# Further results follow:
entry	structure	Ab BasE inh	KSHV LANA nucl
121	Clc1nsc2ccccc12	1.9	/
122	CCN(Cc1nc(-c2ccc(OC)cc2)no1)S(=O)(=O)c1c(C)cc(C)cc1C	-13	2.2
123	CCn1c2ccccc2c2cc(CN3CCCC3)ccc21	-4.0	-0.57
124	Brc1ccc(-n2c(-c3ccco3)nc3nc4ccccc4nc32)cc1	-0.1	/
125	CCCOc1cccc(N)c1	2.2	1.5
126	CCc1ccccc1NC(=O)CN1CCN(C(=O)/C=C/c2cc(Cl)c3c(c2)OCCO3)CC1	0.6	/
127	COc1ccc(CCNS(=O)(=O)c2ccc(C3CNC(=O)C3)cc2)cc1OC (configuration not stated)	-1.0	0.87
128	Cc1ccc(S(=O)(=O)NC(C)(C)CN2CCCCC2)cc1	-2.0	0.25
129	Nc1nnc(SCC2=CC(=O)N3C=CSC3N2)s1 (configuration not stated)	0.5	/
130	COC(=O)c1ccc(COC(=O)C2CCN(c3ccc(C(F)(F)F)cn3)CC2)cc1	2.9	/

# Results in sequence from above:
# Nos. 80 to 86 in Ab BasE inh, in turn: 1.5, -0.9, 6.4, -1.3, 1.4, 1.8, -12
# Nos. 80 to 86 in KSHV LANA nucl, in turn: -1.4, -0.34, /, 0.64, /, 0.09, 0.34

# Screening results from PubChem.
